High-throughput results from PubChem.
Calb FLC: affects C. albicans growth with fluconazole | C. albicans CaCi-2 (fluconazole-resistant clinical isolate) + fluconazole, Alamar Blue growth, 48 h | growth inhibition, % (no concentration beside the values) | hit rate 0.57% among 300,000;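 active means most replicates above 75%; inconclusive means exactly half above 75%; inactive means most below 75%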;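 further: all wells also contain fluconazole at 8 µg/ml as a sub-toxic cotreatment; 0% = median of DMSO wells and 100% = median of geldanamycin control wells; wells of about 8 µL received 7.5 nL stock; the first replicate is given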
LANA-H2B inh: blocks KSHV LANA binding to histone H2A/H2B. Q9QR71. cell-free LANA-H2A/H2B peptide, fluorescence polarization. inhibition, % (concentration not given with the values). hit rate 0.6% among 320,000; in the data active means inhibition mostly above about 10%, no sharp cut-off; inactive means mostly below about 6.7%;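 further: stock transfer was 7.5 nL into about 10 µL; 0% = median of vehicle wells and 100% = median of positive control wells; one replicate is shown; the record names a cut of 25% in any replicate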
Vif A3G: HIV-1 Vif–A3G interaction blockers – biochemical, TR-FRET, GST-Vif 1-94, biotin-A3G peptide, dose response retest, primary screen (AID 1117319). TR-FRET GST-Vif / biotin-A3G peptide binding; higher % means a stronger effect; test concentration not given here; strong numbers were not always called active. inhibition, %, or IC50 in µM where a hit was titrated. hit rate 0.57% among 260,000;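 active means above the screen mean plus three standard deviations and confirmed in dose response; inconclusive means results disagree or hit not tested in dose response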;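 further: Vif residues 1-94 fused to GST binding biotinylated APOBEC3G peptide 110-148; 0% = full assay without inhibitor and 100% = GST in place of GST-Vif; retest series ran down from 100 µM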
AF4-AF9 inh: MLL-AF4/AF9 protein interaction inhibition; P42568; AlphaScreen, biotin-AF4 peptide binding to FLAG-AF9; inhibition, % at 10 µM; hit rate 0.47% among 350,000; AID 651704;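 active means every replicate reaching a set inhibition limit, whatever the replicate mean, cut at about 25% in these data; inconclusive means mean inhibition reaches that limit but some replicates miss it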;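 further: 0% = plate neutral control median and 100% = total signal loss; the record names both 10 and 1 µM as test concentration; the first replicate is given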
Target sequence (P42568 whole entry, looked up): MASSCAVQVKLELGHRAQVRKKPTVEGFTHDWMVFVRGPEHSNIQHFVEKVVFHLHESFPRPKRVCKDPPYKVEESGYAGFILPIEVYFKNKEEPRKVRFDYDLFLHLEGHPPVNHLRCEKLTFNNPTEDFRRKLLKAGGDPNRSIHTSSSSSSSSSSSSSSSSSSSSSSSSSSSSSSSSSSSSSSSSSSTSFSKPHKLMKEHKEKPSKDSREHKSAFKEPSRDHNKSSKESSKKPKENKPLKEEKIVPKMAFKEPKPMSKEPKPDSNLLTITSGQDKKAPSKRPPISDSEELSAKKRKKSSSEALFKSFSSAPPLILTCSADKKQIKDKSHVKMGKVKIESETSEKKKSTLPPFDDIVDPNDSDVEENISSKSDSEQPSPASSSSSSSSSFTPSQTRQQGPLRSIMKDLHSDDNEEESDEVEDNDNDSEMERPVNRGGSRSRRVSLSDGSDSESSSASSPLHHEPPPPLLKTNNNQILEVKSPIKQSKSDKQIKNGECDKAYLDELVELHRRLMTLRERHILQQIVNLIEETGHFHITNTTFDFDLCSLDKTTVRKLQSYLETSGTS
T cruzi repl: T. cruzi replication inhibition | hit rate 1.4% among 300,000 | T. cruzi beta-gal in NIH3T3, luminescence, 90 h | inhibition, % (concentration not given with the values) | AID 1885;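 active means mean inhibition across valid replicates above about 55%, limit read from the data; inconclusive means mean below that limit but half or more replicates reach it; inactive means mean below it, under half of replicates reach it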;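 further: signal also drops with host cell toxicity which is not excluded here; 0% = plate median of DMSO wells and 100% = zero luminescence signal; higher percent means less beta-gal luminescence so fewer parasites; stock transfer was 50 nL into about 50 µL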
Beta cell apopt: beta cell apoptosis inhibition; INS-1E cytokine-induced death, ATP luminescence, 48 h; percent of positive-control rescue, neutral wells zero; protection from apoptosis, % (no concentration beside the values); hit rate 0.8% among 300,000; AID 435005;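 active means all replicates at 75% or more, or half of them and the mean; inconclusive means half reach 75% but not the mean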;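 further: 0% = cytokine-treated negative control wells and 100% = positive control rescue; higher means more ATP so stronger rescue from cytokine killing; wells of about 40 µL received 100 nL stock; the first replicate is given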
RanGTP-Impb inh: inhibitors of RanGTP-importin-beta interaction, primary screen, biochemical, FRET, CFP-Ran, YFP-importin-beta, homogeneous | cell-free CFP-Ran/YFP-importin-beta FRET ratio | inhibition, % (no concentration beside the values) | hit rate 1.1% among 300,000 | AID 2216;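 active means most replicates above 15%; inconclusive means exactly half above 15%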;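 further: 0% = DMSO wells and 100% = Ran loaded with GDP instead of GTP; wells of about 40 µL received 100 nL stock; the first replicate is given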
Bfl-1 A1 inh: inhibitors of the anti-apoptotic protein A1, read as caspase activation; MEF A1-2A-BIM cells, Caspase-Glo 3/7 luminescence, 3 h; percent of clofoctol response, vehicle zero; caspase activation, % (concentration not given with the values); hit rate 0.066% among 330,000; AID 2462;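 active means over half of replicate activation scores above 10%, or exactly half above 10 with the replicate mean above 10; inconclusive means replicate mean below 10 yet half the replicates above 10; inactive means over half of replicates below 10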;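 further: wells of about 30 µL received 50 nL stock; many hits fall short of the cut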
Numbers without * were called inactive; ? = inconclusive; . = no result given; & = joins results of further samples.

SMILES	Calb FLC	LANA-H2B inh	Vif A3G	AF4-AF9 inh	T cruzi repl	Beta cell apopt	RanGTP-Impb inh	Bfl-1 A1 inh
O=C(NC1CCN(C(=O)Nc2ccc(F)cc2)CC1)c1ccc(F)cc1	-1	0.3	.	4.6	-11	6	5.1	0.3
COc1ccc(C)cc1NC(=O)n1ncc2c(C)cccc21	-14	3.3	1%	-3.1	4	10	0.9	-0.7
O=C(NNC(=S)NC1CCCCC1)c1ccc(Cl)s1	65	3.4	.	0.7	4	16	-1.3	0.3
CCN(CC)CC(O)CN1C(=O)NC(C)(C)C1=O (stereo not drawn)	-13	7.2	6%	-0.5	-7	-1	-2.5	-0.8
CCOC(=O)C1CCN(C(=O)Nc2ccc3oc(C)nc3c2)CC1	35	0.3	31%	.	6	-2	1.6	0.3
Cc1ccc(-c2nnc(N3CCC(C)CC3)c3ccccc23)cc1C	4	0.9	-7%	14	53	10	0.1	1.1
C/C(=N\NC(=O)CNC(=O)C(c1ccccc1)c1ccccc1)c1ccc(C)cc1	-16	-5.2	.	-8.1	-15	0	1.5	0.3
Cc1cc(C)cc(N(CC(=O)NC2CCCCC2)C(=O)c2csnn2)c1	4	0.5	-7%	-13	-3	-2	-5.3	0.4
Cc1c(C(=O)N2CCOCC2)c(S(=O)(=O)Nc2ccc(C(C)C)cc2)c(C)n1C	2	6.6	.	8.0	-10	1	1.1	2.0
CNC(=S)Nc1cc(C)ccc1OC(F)F	18	-2.6	-8%	-2.2	0	3	2.9	-1.4
Cc1cc(=O)n2[nH]c(C)c(-c3ccc(Cl)cc3)c2n1	-10	3.1	21%	.	-18	.	-6.8	0.7
Cc1ccccc1OCC(=O)OCC(=O)Nc1ccc(S(N)(=O)=O)cc1	0	-0.1	?	-1.2	-16	5	-2.6	-0.2
O=C(c1ccc(N2CCCCS2(=O)=O)cc1)N1CCN(c2ccccc2F)CC1	-7	-5.1	0%	0.7	1	6	0.4	-0.5
CC1C(=O)N2CCCc3cc(NC(=O)C(=O)NCc4ccc5c(c4)OCO5)cc1c32 (stereo not drawn)	-7	3.4	-5%	1.3	21	-3	2.4	-1.8
CSCCC(NC(=O)c1ccccc1Cl)C(=O)NCC(c1ccco1)N1CCCCC1 (stereo not drawn)	-5	2.2	5%	-11	-14	5	-0.1	2.4
COCCN1CCN(C(=O)C2CCC(=O)N(Cc3ccc(Cl)cc3)C2)CC1 (stereo not drawn)	-7	-1.1	.	-1.4	-30	0	-0.1	1.6
Cc1ccc(S(=O)(=O)NN2C(=O)/C(=C/c3cccs3)SC2=S)cc1	0	-1.7	-2%	-4.1	-4	-8	-1.3	1.4
O=C(O)c1ccc(Nc2nc3ccccc3nc2NS(=O)(=O)c2ccc(F)cc2)cc1	4	-0.1	.	-6.8	-19	-5	1.2	-0.8
COC(=O)c1ccc(C(=O)OC)c(NC(=O)CN(C)Cc2cccc(Cl)c2Cl)c1	-4	3.2	.	1.8	8	2	-1.4	-0.4
NC(=O)c1cc(S(=O)(=O)NCc2ccc(F)cc2)cs1	-1	-3.9	.	-14	-11	-2	0.9	0.4
CSc1nc(N2CCOCC2)c2ccccc2n1	-5	-1.5	-4%	-5.6	16	-5	.	1.6
NC(=S)N/N=C/c1ccc(C23CC4CC(CC(C4)C2)C3)cc1	-2	0.6	.	.	77*	77*	4.9	0.7
O=C(Nc1cccc(Br)c1)c1ccc(OC2CSC2)cc1	-18	4.1	25%	.	23	-2	-3.1	-0.2
COc1ccc(S(=O)(=O)N2CCOCC2)cc1C(=O)Nc1cc(C)on1	10	-4.1	2%	.	6	2	-1.0	-0.1
O=C(NNc1c([N+](=O)[O-])cc(C(F)(F)F)cc1[N+](=O)[O-])c1ccco1	34	-2.5	.	18	1	61	6.5	-0.2
CCc1nnc(NC(=O)C2CCC2)s1	1	3.9	-5%	.	0	2	1.1	-0.3
Cc1cc(=O)oc2cc(OCC(=O)OC(C)C(=O)Nc3ccc(S(N)(=O)=O)cc3)ccc12 (stereo not drawn)	.	-2.9	-2%	-1.3	.	-6	.	-0.4
COc1cc(C(=O)NN2C(=O)NC3(CCC(C)CC3)C2=O)ccc1OC(F)F (stereo not drawn)	.	2.3	.	1.5	.	7	.	0.5
Cc1nc(Sc2cccn2C)c(C(F)(F)F)c(=O)[nH]1	-19	0.3	8%	.	-9	-16	-0.7	0.0
O=C(CSc1nnc(-c2ccccc2)n1-c1ccc(Cl)cc1)N/N=C/c1ccco1	-15	0.5	.	.	-5	-5	1.1	0.2
O=C(N/N=C/c1ccc2c(c1)OCO2)c1cc(-c2ccncc2)nc2ccccc12	-3	1.6	0%	.	-17	6	-1.1	1.0
CCN1CCCC1CNC(=O)C(=O)Nc1ccccc1OC (stereo not drawn)	0	-3.6	4%	.	-2	-1	?	-0.4
O=C(O)c1oc2ccccc2c1CSc1ccccn1	-6	3.3	16%	.	7	-2	2.7	1.9
Cc1cc(S(=O)(=O)N2CCN(c3ccccc3F)CC2)ccc1-n1cnnn1	-4	-2.4	.	3.5	-2	5	-2.8	0.1
COc1ccccc1OCC(=O)Nc1ccc(S(=O)(=O)Nc2nccs2)cc1	-7	1.3	0%	1.0	-12	-3	7.8	-0.2
O=C(CCCSc1nc2ccccc2c(=O)[nH]1)c1ccc(F)cc1	17	6.6	-60%	-1.9	8	-2	-1.5	-1.8
Cc1cc(=O)[nH]c(Sc2c(-c3ccccc3)c3ccccc3[nH]c2=O)n1	-10	4.0	-8%	.	3	0	-3.8	0.9
CCN(Cc1ccccc1)C(=O)COC(=O)CNC(=O)c1ccc(C)s1	3	-4.2	.	-2.1	-20	-3	0.2	0.9
Cc1cc(C)cc(NC(=S)NC2CC3CCCC(C2)N3C2CC2)c1 (stereo not drawn)	2	5.8	4%	7.2	-22	-4	3.1	1.3
CCOc1ccc(NC(=O)CN(C)c2nnnn2-c2ccccc2)cc1OCC	0	-5.3	?	.	-2	5	4.9	0.2
COc1ccc(Oc2nc3ccccc3n3cccc23)cc1	-5	-1.1	0%	.	6	2	-0.2	0.8
COCCc1nc2ccc(C(=O)NCc3cccc(-n4cccn4)c3)cc2o1	-4	0.1	.	1.6	-4	0	-3.7	-1.0
C=CCn1c(SCC(=O)NC2CCCC2)nc2c([nH]c3ccccc32)c1=O	.	-3.1	-1%	-0.5	-5	-19	.	-0.2
COC(=O)[C@H]1[C@@H](C)N(Cc2ccccc2)C(=O)N[C@H]1c1cccc(C(F)(F)F)c1	1	-0.9	.	3.0	-18	1	?	-0.3
COc1ccc(CNC(=O)COC(=O)C2CCN(S(=O)(=O)c3ccccc3C(F)(F)F)CC2)cc1	-1	1.5	.	.	5	-2	2.8	0.4
CCc1nnc(NC(=O)CSc2nnnn2-c2cccc(C(=O)OC)c2)s1	3	5.7	-4%	.	-10	-14	2.3	-1.5
COc1ccc(S(=O)(=O)N2CCOCC2)cc1NC(=O)CSc1ncnc2ccccc12	32	-0.2	-9%	1.5	-6	.	2.1	1.7
O=C(Nc1cccc(Cl)c1)N1CCc2ccccc2C1	-14	-5.2	-6%	1.2	-8	2	-1.7	-4.0
CC(C)c1cc(C(N)=O)c(NC(=O)c2cccc(COc3ccc(Cl)cc3)c2)s1	7	-1.6	-10%	.	42	-3	-0.4	-8.0
CCN(CC)S(=O)(=O)c1ccc(N2CCOCC2)c(NC(=O)COc2ccc(Cl)cc2)c1	3	-3.4	.	-27	-9	15	8.1	1.9

Following part:
SMILES	Calb FLC	LANA-H2B inh	Vif A3G	AF4-AF9 inh	T cruzi repl	Beta cell apopt	RanGTP-Impb inh	Bfl-1 A1 inh
O=C(CCc1nc(-c2ccc(Cl)cc2)no1)NC1CCCC1	.	-3.5	.	-1.4	-3	4	-0.8	0.3
Cc1cc(/C=C2/C(=N)N3C(=NC2=O)SN=C3S(C)(=O)=O)c(C)n1-c1ccc(F)cc1	16	-0.8	11%	-2.7	3	3	4.8	0.2
COc1ccccc1/C=N/n1nnnc1N	8	0.8	1%	0.7	-11	-9	?	0.1
CC(CCc1ccccc1)NC(=O)CC(C)c1ccccc1 (stereo not drawn)	14	8.9	4%	-3.3	?	2	1.6	0.9
O=C(C1=NNC2C(=O)N(c3ccccc3)C(=O)C12)c1nc(Cl)ccc1Cl (stereo not drawn)	-3	-0.2	4%	.	2	-4	1.8	-0.6
Cc1cccn2c(=O)c3cc(C(=O)N4CCCCC4)sc3nc12	-1	1.0	3%	-2.6	7	6	2.1	-0.9
CCn1c(=O)c(C(=O)NCc2ccccc2Cl)c(O)c2ccccc21	-3	-1.0	.	0.8	3	36	2.2	2.7
COc1ccc(NC(=S)N2CCc3ccccc3C2)cc1	-1	1.1	-14%	0.1	-3	-18	-0.8	0.1
O=C(NCc1cccnc1)C(=O)N/N=C/c1ccc([N+](=O)[O-])cc1	-9	5.0	7%	-1.5	1	1	-1.4	-0.3
O=C(c1ccc([N+](=O)[O-])cc1)N(C1=NCCCCS1)c1ccccc1	7	-1.1	1%	.	7	-3	-1.3	1.6
Cc1cccc(N=C2NC(=O)/C(=C/c3cccn3C)S2)c1C	1	0.2	7%	5.4	5	-2	?	0.2
O=C(Cc1ccccc1)N1CCC(c2nc(-c3ccc(F)cc3)no2)CC1	-27	0.2	1%	.	-8	-7	?	0.5
CCOC(=O)N1CCC(NS(=O)(=O)c2cc(Br)cnc2N)CC1	8	-6.0	-5%	.	-5	-12	-0.2	0.3
CSc1ncccc1C(=O)OCC(=O)c1ccccc1	-9	-6.0	-9%	-12	-12	-4	0.6	-4.6
O=C(NCCc1ccccn1)C1CCN(S(=O)(=O)c2ccc3ccccc3c2)CC1	24	0.8	.	-2.2	18	-3	-5.9	-0.2
Cc1ccc(NC(=O)CN(C)S(=O)(=O)c2cccc3nsnc23)cc1	2	-2.1	-1%&-3%	.	-2	-6	0.0	1.1
Cc1ccc(C(=O)OCc2cc(=O)n3c(C)csc3n2)s1	.	2.5	.	-0.3	.	-2	.	-0.4
Cc1ccc(NCCC(=O)c2ccccc2)cc1Cl	-12	1.0	13%	-1.3	-12	-3	-0.5	-0.2
O=C(Nc1nnc(-c2ccc(Cl)cc2)o1)c1cccc(N2C(=O)CCC2=O)c1	-4	12	.	.	-4	-4	4.9	-0.8
CCN(C(=S)NCc1ccccc1)c1ccccc1	-38	-4.8	1%	-6.7	0	-5	0.3	0.4
CSc1nc2sc(-c3ccccc3)cc2c(=O)n1N	-1	-5.6	-5%	.	-5	60	-2.5	-7.2
COc1ccc(Cl)cc1NC(=O)COC(=O)CCc1cc(OC)c(OC)c(OC)c1	5	1.9	.	2.1	-17	4	2.1	1.2
Cc1ccc(S(=O)(=O)NCC(=O)N(c2ccccc2)C(C(=O)NCc2ccccc2)c2ccco2)cc1 (stereo not drawn)	0	.	-3%	-35	-3	-5	0.5	-0.5
Cc1cc(C)cc(N=C2NC(=O)/C(=C/c3cccs3)S2)c1	13	4.8	.	4.5	-21	-13	3.9	-0.6
